T cruzi repl: inhibitors of intracellular T. cruzi growth, primary screen, luminescence, NIH3T3 host cells | T. cruzi beta-gal in NIH3T3, 90 h | inhibition, % (concentration not given with the values) | actives 1.4% (n = 300,000);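 active = mean inhibition across valid replicates above about 55%, limit read from the data; inconclusive = mean below that limit but half or more replicates reach it; inactive = mean below it, under half of replicates reach it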;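 note: signal also drops with host cell toxicity which is not excluded here; 0% = plate median of DMSO wells and 100% = zero luminescence signal; higher percent means less beta-gal luminescence so fewer parasites; stock transfer was 50 nL into about 50 µL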
Beta cell apopt: inhibitors of cytokine-induced beta cell apoptosis, primary screen, luminescence. INS-1E cytokine-induced death, ATP luminescence, 48 h; percent of positive-control rescue, neutral wells zero. protection from apoptosis, % (concentration not given with the values). actives 0.8% (n = 300,000);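 active = all replicates at 75% or more, or half of them and the mean; inconclusive = half reach 75% but not the mean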;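 note: 0% = cytokine-treated negative control wells and 100% = positive control rescue; higher means more ATP so stronger rescue from cytokine killing; wells of about 40 µL received 100 nL stock; the first replicate is given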
FGF22 binding: binders of human FGF22 protein, primary screen, FGF22 synaptogenesis inhibitor project, biophysical, thermal shift, single point; AID 651658, 2012; recombinant FGF22 thermal shift, SYPRO orange fluorescence; percent of sucrose octasulfate shift, DMSO zero; actives 1.5% (n = 340,000); Fibroblast growth factor 22 (Homo sapiens), Q9HCT0; calls only at 9.99 µM;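 active = melting point raised past a set limit in the mean and every replicate; inconclusive = no clear call; three in four hits are not shown here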
Target sequence (Q9HCT0 whole entry, looked up): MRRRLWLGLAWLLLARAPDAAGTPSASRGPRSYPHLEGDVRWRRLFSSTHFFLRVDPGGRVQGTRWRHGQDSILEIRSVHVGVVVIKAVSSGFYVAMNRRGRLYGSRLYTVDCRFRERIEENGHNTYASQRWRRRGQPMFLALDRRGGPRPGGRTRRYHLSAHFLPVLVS
rRNA inh HTS: reduced GFP signal of wild-type E. coli, primary screen, bacterial rRNA inhibitor project, GFP/RFP fluorescence, OD600, single point; E. coli WT GFP vs humanized-ribosome RFP mutants, 24 h; active compounds read low; DMSO median 0, no signal -100; actives 1.6% (n = 350,000); GFP signal change (wild-type ribosome), % (concentration not given with the values);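 active = significant combined selectivity score with lowered wild-type GFP, culture density cut under 30%, mutant RFP and density less affected; inactive = any of these conditions unmet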; note: one replicate is shown; some compounds called inactive have numbers as strong as hits
MLL AF4-AF9 inh: inhibitors of AF4 peptide binding to AF9, primary screen, biochemical, AlphaScreen, biotin-AF4 peptide, FLAG-AF9, single point | inhibition, % at 10 µM | Protein AF-9 (Homo sapiens), P42568 | actives 0.47% (n = 350,000) | AID 651704, 2012;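 active = every replicate reaching a set inhibition limit, whatever the replicate mean, cut at about 25% in these data; inconclusive = mean inhibition reaches that limit but some replicates miss it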;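 note: 0% = plate neutral control median and 100% = total signal loss; the record names both 10 and 1 µM as test concentration; the first replicate is given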
Target sequence (P42568 whole entry, looked up): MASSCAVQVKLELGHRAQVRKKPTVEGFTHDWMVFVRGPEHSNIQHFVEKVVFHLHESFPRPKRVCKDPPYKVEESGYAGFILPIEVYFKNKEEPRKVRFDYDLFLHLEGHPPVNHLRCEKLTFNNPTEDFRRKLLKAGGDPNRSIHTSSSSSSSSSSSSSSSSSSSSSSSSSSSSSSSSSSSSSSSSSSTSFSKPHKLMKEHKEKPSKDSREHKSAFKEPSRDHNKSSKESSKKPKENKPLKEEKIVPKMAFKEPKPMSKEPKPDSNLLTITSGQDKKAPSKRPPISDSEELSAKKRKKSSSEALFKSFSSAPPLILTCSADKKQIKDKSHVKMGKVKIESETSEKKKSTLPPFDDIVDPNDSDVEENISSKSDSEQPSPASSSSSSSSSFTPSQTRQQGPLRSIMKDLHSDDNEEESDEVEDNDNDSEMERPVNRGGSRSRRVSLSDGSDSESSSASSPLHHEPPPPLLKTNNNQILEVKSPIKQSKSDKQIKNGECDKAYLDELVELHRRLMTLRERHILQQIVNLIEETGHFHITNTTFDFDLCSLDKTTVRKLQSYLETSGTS
A1 inh: caspase 3/7 activation in MEF A1-2A-BIM cells, primary screen, A1 inhibitor project, cell-based, luminescence, HTS. Caspase-Glo 3/7 luminescence, 3 h; percent of clofoctol response, vehicle zero. caspase activation, % (test concentration not listed). actives 0.066% (n = 330,000). AID 2462, 2010;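 active = over half of replicate activation scores above 10%, or exactly half above 10 with the replicate mean above 10; inconclusive = replicate mean below 10 yet half the replicates above 10; inactive = over half of replicates below 10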;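 note: wells of about 30 µL received 50 nL stock; many hits fall short of the cut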
Ecoli growth: E. coli growth inhibition, primary screen, OD600; actives 0.21% (n = 330,000); OD600 absorbance (no concentration beside the values); Escherichia coli growth, 23 h; active compounds read low;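 active = OD600 absorbance below the run mean of sample wells minus 3.6 SD, in any replicate, cut at about 0.56 in these data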;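 note: stock transfer was 300 nL into about 60 µL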
UCH37 inh: inhibitors of human UCH37 deubiquitinase, primary screen, biochemical, Ub-AMC cleavage, fluorescence | Ubiquitin carboxyl-terminal hydrolase isozyme L5 (Homo sapiens), Q9Y5K5 | purified proteasome/UCH37 | inhibition, % (no concentration beside the values) | actives 0.33% (n = 330,000) | AID 588478, 2011;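 active = mean of two replicates above 20%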;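 note: 0% = compound-free wells with enzyme and 100% = wells lacking proteasome; stock transfer was 100 nL into about 20 µL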
Target sequence (Q9Y5K5 whole entry, looked up): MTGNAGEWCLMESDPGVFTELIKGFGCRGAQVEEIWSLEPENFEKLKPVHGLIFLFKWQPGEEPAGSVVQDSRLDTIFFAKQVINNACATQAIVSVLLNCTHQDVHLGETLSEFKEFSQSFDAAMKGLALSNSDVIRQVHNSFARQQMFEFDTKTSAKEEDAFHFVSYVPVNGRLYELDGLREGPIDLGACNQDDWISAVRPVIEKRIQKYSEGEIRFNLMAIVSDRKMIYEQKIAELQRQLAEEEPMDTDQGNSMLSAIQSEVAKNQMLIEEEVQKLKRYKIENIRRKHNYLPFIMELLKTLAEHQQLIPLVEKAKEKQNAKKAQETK
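Test system – human UCH37 enzyme supplied as purified proteasome complex · Incubation – 30 min preincubation with enzyme, 25 min cleavage at room temperature · Detection – AMC fluorescence from Ub-AMC cleavage, excitation 355 nm, emission 460 nm · Benchmarks – no-proteasome wells (full inhibition) and compound-free wells (no inhibition)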
rRNA inh HTS OD600: further read-out of rRNA inh HTS, marked with its call; OD600 change, %; measured here: OD600 growth;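 optical density of the mix in the first replicate; 0 = DMSO median and -100 = no signal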
rRNA inh HTS RFP: second read-out of rRNA inh HTS, no call of its own (marks repeat the call); RFP signal change, %; measured here: RFP humanized mutant strains;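 first replicate; 0 = DMSO median and -100 = no signal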
Starred values were filed as active, the others as inactive. Not all compounds are listed (hit frequency here may not be typical).

For N#C/C(=C/c1ccc(N2CCCCC2)o1)C(=O)Nc1ccc(Cl)cc1 the results were T cruzi repl 16, Beta cell apopt 2, A1 inh 0.1, Ecoli growth 0.75 and UCH37 inh 0.0.
For CC(=O)NNC(=O)c1csc(Cc2c(Cl)sc3ccc(Cl)cc23)n1 the results were T cruzi repl 10, Beta cell apopt 5, FGF22 binding inactive, rRNA inh HTS -19, MLL AF4-AF9 inh -0.5, A1 inh 0.1, Ecoli growth 0.7, UCH37 inh 2.1, rRNA inh HTS OD600 28 and rRNA inh HTS RFP -4.0.
Screening COC(=O)/C=C1/S/C(=N/NC(=O)c2ccc(OC)cc2)NC1=O returned T cruzi repl -8, Beta cell apopt -3, FGF22 binding inactive, rRNA inh HTS 6, MLL AF4-AF9 inh -0.8, A1 inh 0.4, Ecoli growth 0.66, UCH37 inh 25*, rRNA inh HTS OD600 6 and rRNA inh HTS RFP -1.8.
O=C(Nc1ccc(Nc2ccccc2)cc1)c1c(F)c(F)c(F)c(F)c1F was read as T cruzi repl 6, FGF22 binding inactive, rRNA inh HTS -1, MLL AF4-AF9 inh 1.1, A1 inh 0.0, Ecoli growth 0.63, UCH37 inh 4.5, rRNA inh HTS OD600 0 and rRNA inh HTS RFP -9.6.
`CCc1c(C)nc(SCc2ccccn2)[nH]c1=O` gave T cruzi repl -11, Beta cell apopt -1, FGF22 binding inactive, rRNA inh HTS 5, MLL AF4-AF9 inh -2.3, A1 inh -0.3, Ecoli growth 0.7, UCH37 inh 4.1, rRNA inh HTS OD600 3 and rRNA inh HTS RFP -1.9.
`CCOc1ccc2[nH]c(=O)c(CN(Cc3cccs3)Cc3nnnn3C(C)(C)CC)cc2c1` gave T cruzi repl 58*, Beta cell apopt -30, FGF22 binding inactive, rRNA inh HTS 3, MLL AF4-AF9 inh 7.9, A1 inh 0.4, Ecoli growth 0.65, UCH37 inh -30, rRNA inh HTS OD600 2 and rRNA inh HTS RFP -1.0.
Screening COc1ccc(NC(=O)C2CCC(N3C(=O)C4C5C=CC(C5)C4C3=O)CC2)cc1 (centres undefined) returned T cruzi repl -5, Beta cell apopt 0, A1 inh -1.2, Ecoli growth 0.74 and UCH37 inh 4.0.
`CC1(C)CC(O)C(C)(C)N1O` (centres undefined) gave T cruzi repl 6, Beta cell apopt 5, A1 inh 0.1, Ecoli growth 0.69 and UCH37 inh 1.6.
CCCn1nnnc1NC(=O)c1ccc2ccccc2c1 was read as T cruzi repl -27, Beta cell apopt -6, FGF22 binding inactive, rRNA inh HTS -45, MLL AF4-AF9 inh -18, A1 inh 0.4, Ecoli growth 0.61, UCH37 inh -6.3, rRNA inh HTS OD600 -46 and rRNA inh HTS RFP -14.
COC(=O)c1ccc2c(c1)N(C)C(=O)CS2 was read as T cruzi repl -6, Beta cell apopt 10, A1 inh 0.3, Ecoli growth 0.67 and UCH37 inh 5.6.
For CCCC(C1=C(O)CC(C)(C)CC1=O)C1C(=O)CC(C)(C)CC1=O (centres undefined) the results were T cruzi repl 6, Beta cell apopt -5, A1 inh -0.1, Ecoli growth 0.7 and UCH37 inh 5.6.
`COc1cc(OC)c(/C=N/NC(=O)c2ccncc2)c(OC)c1` gave T cruzi repl 1, Beta cell apopt -2, FGF22 binding inactive, rRNA inh HTS -7, MLL AF4-AF9 inh -0.9, A1 inh 0.9, rRNA inh HTS OD600 -1 and rRNA inh HTS RFP -3.8.
`CCSc1nnc(NC(=O)c2cccc(S(=O)(=O)N(C)c3ccccc3)c2)s1` gave T cruzi repl 1, Beta cell apopt -3, A1 inh 1.4, Ecoli growth 0.7 and UCH37 inh 0.1.
`O=C(Nc1ccc(CSc2ccccc2)cc1)c1ccc(CN2CCOCC2)cc1` gave T cruzi repl -16, Beta cell apopt 6, A1 inh 0.3, Ecoli growth 0.72 and UCH37 inh 3.2.
For COc1ccc(C(C#N)N2N=C(c3ccccc3)CC2c2ccccc2)cc1OC (centres undefined) the results were T cruzi repl 6, Beta cell apopt 2, A1 inh 2.4, Ecoli growth 0.73 and UCH37 inh 0.4.
For Cc1[nH]c(=O)[nH]c(=O)c1S(=O)(=O)NCCc1ccc(S(N)(=O)=O)cc1 the results were Beta cell apopt -3, A1 inh -0.2, Ecoli growth 0.77 and UCH37 inh -0.3.
`COc1ccc(C(=O)N/C(=C\c2cn(C)c3ccccc23)C(=O)N2CCN(C)CC2)cc1OC` gave T cruzi repl -4, Beta cell apopt -5, FGF22 binding inactive, rRNA inh HTS 10, MLL AF4-AF9 inh -2.1, A1 inh -0.5, Ecoli growth 0.67, UCH37 inh 11, rRNA inh HTS OD600 -3 and rRNA inh HTS RFP -0.4.
Screening Cc1nc(-c2noc(-c3cccc(Cl)c3)n2)c(C(F)(F)F)o1 returned T cruzi repl 2, Beta cell apopt -14, FGF22 binding inactive, rRNA inh HTS -7, MLL AF4-AF9 inh -18, A1 inh -2.2, Ecoli growth 0.65, UCH37 inh 4.8, rRNA inh HTS OD600 -3 and rRNA inh HTS RFP -6.5.
`Cc1ccc(-c2nn(C)c(=O)c3ccccc23)cc1CNC(=O)c1ccccc1` gave T cruzi repl 46, Beta cell apopt -7, FGF22 binding inactive, rRNA inh HTS -18, MLL AF4-AF9 inh -0.8, A1 inh -0.2, Ecoli growth 0.7, UCH37 inh -1.6, rRNA inh HTS OD600 -23 and rRNA inh HTS RFP -3.4.
`Cc1ccc(S(=O)(=O)N(C)C)cc1NC(=O)COC(=O)Cc1ccsc1` gave T cruzi repl -7, FGF22 binding inactive, rRNA inh HTS 6, MLL AF4-AF9 inh -0.6, A1 inh -0.3, Ecoli growth 0.71, UCH37 inh -3.0, rRNA inh HTS OD600 9 and rRNA inh HTS RFP -0.7.
For CC(C)c1nnc(SCC(=O)Nc2ccc3c(c2)OCO3)n1C the results were T cruzi repl -6, Beta cell apopt -4, A1 inh 0.0, Ecoli growth 0.74 and UCH37 inh 0.0.
For O=C(Cn1cnc2ccccc2c1=O)c1ccc2ccccc2c1 the results were T cruzi repl -3, Beta cell apopt -2, A1 inh 0.8, Ecoli growth 0.71 and UCH37 inh -9.0.
For CCOC(=O)c1cc2[nH]c3ccccc3c2[n+](-c2ccc([N+](=O)[O-])cc2)c1N the results were T cruzi repl 47, Beta cell apopt 12, A1 inh 0.5, Ecoli growth 0.71 and UCH37 inh 15.
For CN(C)C(=S)Nc1ccc([N+](=O)[O-])cc1 the results were T cruzi repl -9, Beta cell apopt -3, A1 inh 0.5, Ecoli growth 0.68 and UCH37 inh 5.5.
`Cc1cccc(C(=O)NN2S(=O)(=O)c3ccccc3S2(=O)=O)c1` gave T cruzi repl -5, Beta cell apopt -6, FGF22 binding inactive, rRNA inh HTS 13, MLL AF4-AF9 inh -3.1, A1 inh 0.4, Ecoli growth 0.68, UCH37 inh 3.2, rRNA inh HTS OD600 4 and rRNA inh HTS RFP 0.7.
For CC(C)Oc1cccc(C(=O)NC(=S)Nc2ccc3c4c(cccc24)CC3)c1 the results were Beta cell apopt 3, A1 inh 0.6, Ecoli growth 0.76 and UCH37 inh 1.4.
COc1ccccc1CN(C)C(=O)CN1C(=O)c2ccccc2C1=O was read as T cruzi repl -14, Beta cell apopt -1, FGF22 binding inactive, rRNA inh HTS 7, MLL AF4-AF9 inh -5.4, A1 inh 0.3, Ecoli growth 0.7, UCH37 inh 1.6, rRNA inh HTS OD600 8 and rRNA inh HTS RFP -3.4.
Screening COc1ccc(CN2CC(C(=O)NCc3ccccn3)CC2=O)cc1 (centres undefined) returned T cruzi repl -17, Beta cell apopt 8, A1 inh 0.8, Ecoli growth 0.71 and UCH37 inh 2.0.
`Cc1cc(C)cc(OCC(=O)OCC(=O)NCc2ccco2)c1` gave T cruzi repl 0, Beta cell apopt -1, A1 inh -0.5, Ecoli growth 0.74 and UCH37 inh 2.5.
For CCOC(=O)c1ccc(NC(=O)CC2C(=O)N(c3ccc(F)cc3)C(=O)N2CCCOC)cc1 (centres undefined) the results were T cruzi repl 5, Beta cell apopt 1, A1 inh inconclusive, Ecoli growth 0.62 and UCH37 inh 0.2.
For Cc1noc2ncnc(Sc3c(Cl)cccc3Cl)c12 the results were T cruzi repl 39, Beta cell apopt -26, A1 inh 0.2, Ecoli growth 0.74 and UCH37 inh 0.8.
Screening Fc1cccc(/C=N/Nc2cc(N3CCOCC3)ncn2)c1 returned T cruzi repl 11, Beta cell apopt 0, rRNA inh HTS 4, MLL AF4-AF9 inh 1.6, A1 inh -0.4, rRNA inh HTS OD600 11 and rRNA inh HTS RFP -1.5.
For O=C(NC1CC1)c1ccc(CN(c2ccccc2)S(=O)(=O)c2ccccc2)cc1 the results were T cruzi repl -5, FGF22 binding inactive, rRNA inh HTS 7, MLL AF4-AF9 inh -1.0, A1 inh 0.1, Ecoli growth 0.68, UCH37 inh 1.4, rRNA inh HTS OD600 6 and rRNA inh HTS RFP 1.6.
For O=C(COc1ccc(C(=O)NCC2CCCO2)cc1)Nc1cccc(C(F)(F)F)c1 (centres undefined) the results were T cruzi repl 4, Beta cell apopt -3, FGF22 binding inactive, rRNA inh HTS -4, MLL AF4-AF9 inh -2.4, A1 inh 0.5, Ecoli growth 0.69, UCH37 inh 1.8, rRNA inh HTS OD600 9 and rRNA inh HTS RFP -1.5.
`Cc1n[nH]c(C)c1S(=O)(=O)N1CCCC(C(=O)Nc2ccc(Br)cc2)C1` (centres undefined) gave T cruzi repl -20, Beta cell apopt -3, FGF22 binding inactive, rRNA inh HTS -18*, MLL AF4-AF9 inh -0.5, A1 inh -1.1, Ecoli growth 0.73, UCH37 inh 2.1, rRNA inh HTS OD600 -8.9* and rRNA inh HTS RFP 2.2*.
For O=C(c1ccccc1Cc1ccccc1)N1CCN(S(=O)(=O)c2ccccc2Br)CC1 the results were T cruzi repl 11, Beta cell apopt 7, FGF22 binding inactive, rRNA inh HTS -11, MLL AF4-AF9 inh -21, A1 inh -0.2, Ecoli growth 0.73, UCH37 inh -0.1, rRNA inh HTS OD600 -24 and rRNA inh HTS RFP 8.9.

Two compounds drawn at random from those above, as already listed:
`Cc1cc(C)cc(OCC(=O)OCC(=O)NCc2ccco2)c1` gave T cruzi repl 0, Beta cell apopt -1, A1 inh -0.5, Ecoli growth 0.74 and UCH37 inh 2.5.
For O=C(NC1CC1)c1ccc(CN(c2ccccc2)S(=O)(=O)c2ccccc2)cc1 the results were T cruzi repl -5, FGF22 binding inactive, rRNA inh HTS 7, MLL AF4-AF9 inh -1.0, A1 inh 0.1, Ecoli growth 0.68, UCH37 inh 1.4, rRNA inh HTS OD600 6 and rRNA inh HTS RFP 1.6.
